# Bioassay records deposited in PubChem by Broad Institute.
# DUX4 inh – DUX4-mediated transcription inhibition; 293T-iDUX4 ZSCAN4-Gaussia luciferase reporter, 24 h; stronger effect = lower value; activity change, negative = inhibition, % (no concentration beside the values); 0.8% of 37,000 active;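 active = -10% or lower and over 25 points stronger than a control reporter; inconclusive = -10% or lower with a smaller gap; inactive = above -10%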;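 also: 0% = median of neutral control wells and -100% = median of positive control wells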
# DUX4 inh difference – further read-out of DUX4 inh, marked with its call; Gaussia minus Italica difference, %; measured here: selective DUX4 reporter inhibition;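 worked out from the two reporters; negative = selective loss of the DUX4 reporter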
# DUX4 inh control – also measured in DUX4 inh; calls as there; activity change, negative = inhibition, %; measured here: Italica tet-on control reporter;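 0 = neutral control and -100 = positive control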
# Active calls of the source: *; ? = inconclusive; · = not tested or not shown. Not all compounds are listed; the hit share may differ from the screen's.
compound	DUX4 inh	DUX4 inh difference	DUX4 inh control
CC(C)(C)[S@@](=O)N1Cc2cc(C(=O)NCc3ccc4c(c3)OCO4)nc(-c3cccc(-c4ccncc4)c3)c2[C@H]1CCO	4	1	2.9
C/C=C/c1ccccc1[C@@H]1[C@@H](C#N)N(C(=O)c2cccnc2)[C@H]1CO	14	14	0.1
C[C@@H]1CN([C@H](C)CO)C(=O)c2cc(/C=C/c3ccccc3)cnc2O[C@@H]1CN(C)C(=O)C1CCOCC1	3	3	0.4
Cc1cccc(-c2ccc([C@H]3[C@@H](CO)N4C(=O)CN(C(=O)c5ccccc5)C[C@@H]34)cc2)c1	1	-4	5.0
COCC(=O)N1[C@@H](C#N)[C@H](c2ccccc2-c2ccccc2F)[C@@H]1CO	10	7	2.4
COc1ccc2c3c([nH]c2c1)[C@H](CO)N(C(=O)c1cccnc1)CC31CN(Cc2ccccc2)C1	-2	-11	9.8
C[C@H](CO)N1C[C@H](C)[C@H](CN(C)C(=O)Nc2ccc(C(F)(F)F)cc2)Oc2ccc(NC(=O)Cn3cnnn3)cc2CC1=O	3	0	2.5
COCC(=O)N1[C@@H]2CN(C(=O)c3cccc(OC)c3)c3ccccc3[C@@H]2[C@@H]1CO	0	-1	1.0

# Limited to DUX4 inh and DUX4 inh control, for two of the compounds above:
Molecule	DUX4 inh	DUX4 inh control
CC(C)(C)[S@@](=O)N1Cc2cc(C(=O)NCc3ccc4c(c3)OCO4)nc(-c3cccc(-c4ccncc4)c3)c2[C@H]1CCO	4	2.9
C/C=C/c1ccccc1[C@@H]1[C@@H](C#N)N(C(=O)c2cccnc2)[C@H]1CO	14	0.1

# Next part:
compound	DUX4 inh	DUX4 inh difference	DUX4 inh control
O=C(NCC1CCCCC1)[C@@H]1[C@@H](CO)[C@@H]2Cn3c(cccc3=O)[C@@H]2N1C(=O)CC1CC1	2	1	1.2
CN(C)C(=O)c1cccc(-c2ccc3c(c2)[C@H]2[C@H](CCN2Cc2nccs2)[C@@H](CO)N3)c1	0	1	-1.0
C[C@@H]1CN([C@H](C)CO)C(=O)c2cc(-c3ccc(F)cc3)cnc2O[C@H]1CN(C)S(C)(=O)=O	2	2	-0.4
C[C@H](CO)N1C[C@H](C)[C@@H](CN(C)C(=O)c2ccccc2F)Oc2ncc(-c3cccnc3)cc2C1=O	2	0	1.4
CC(C)NC(=O)N(C)C[C@@H]1Oc2c(NS(=O)(=O)c3cccs3)cccc2C(=O)N([C@H](C)CO)C[C@H]1C	-5	-2	-2.5
O=C(c1ccccc1)N1CC(=O)N2[C@H](C1)[C@@H](c1ccc(/C=C/c3ccccc3)cc1)[C@@H]2CO	?	·	·
Cc1noc(C)c1NC(=O)N1C[C@@H](O)COC[C@@H]2O[C@H](CC(=O)N3CCc4ccccc4C3)CC[C@H]21	8	7	0.1
COCC(=O)N1CC(=O)N2[C@H](CO)[C@@H](c3ccc(Br)cc3)[C@H]2C1	14	4	9.5
CC(=O)N1CC(=O)N2[C@H](C1)[C@H](c1ccc(C#Cc3cccnc3)cc1)[C@@H]2CO	-5	-11	5.7
O=C(NC[C@@H]1[C@@H](c2ccccc2)[C@@H](CO)N1C(=O)Cc1ccncc1)C1CCC1	2	-2	3.5
CO[C@@H]1CN(C)C(=O)c2cc(NS(=O)(=O)c3cn(C)cn3)ccc2OC[C@H](C)N(CC2CC2)C[C@H]1C	2	-5	7.4
CCC(=O)N1[C@@H](CO)[C@H](c2ccc(-c3cccc(F)c3)cc2)[C@@H]1CNC(C)=O	0	1	-1.1
COc1ccccc1S(=O)(=O)N(C)C[C@@H]1OCc2ccccc2-c2c(n(C)c3ccccc23)C(=O)N([C@H](C)CO)C[C@H]1C	?	·	·
COc1ccccc1CNC(=O)C[C@H]1C[C@@H]2c3cc(NC(=O)C4CCC4)ccc3O[C@@H]2[C@H](CO)O1	2	3	-1.0
O=C(C[C@@H]1CC[C@@H]2[C@H](COC[C@H](O)CN2S(=O)(=O)c2ccc(F)cc2)O1)N1CCc2ccccc2C1	-7	0	-7.5
CNC[C@@H]1[C@H](c2ccccc2)[C@H](CO)N1C(=O)Nc1cccc(OC)c1	4	1	3.2

# Entries from the list above that have fluorine (six):
compound	DUX4 inh	DUX4 inh difference	DUX4 inh control
COCC(=O)N1[C@@H](C#N)[C@H](c2ccccc2-c2ccccc2F)[C@@H]1CO	10	7	2.4
C[C@H](CO)N1C[C@H](C)[C@H](CN(C)C(=O)Nc2ccc(C(F)(F)F)cc2)Oc2ccc(NC(=O)Cn3cnnn3)cc2CC1=O	3	0	2.5
C[C@@H]1CN([C@H](C)CO)C(=O)c2cc(-c3ccc(F)cc3)cnc2O[C@H]1CN(C)S(C)(=O)=O	2	2	-0.4
C[C@H](CO)N1C[C@H](C)[C@@H](CN(C)C(=O)c2ccccc2F)Oc2ncc(-c3cccnc3)cc2C1=O	2	0	1.4
CCC(=O)N1[C@@H](CO)[C@H](c2ccc(-c3cccc(F)c3)cc2)[C@@H]1CNC(C)=O	0	1	-1.1
O=C(C[C@@H]1CC[C@@H]2[C@H](COC[C@H](O)CN2S(=O)(=O)c2ccc(F)cc2)O1)N1CCc2ccccc2C1	-7	0	-7.5

# Other compounds
compound	DUX4 inh	DUX4 inh difference	DUX4 inh control
CN1CCN(C(=O)C[C@@H]2CC[C@@H]3[C@H](COC[C@H](O)CN3C(=O)Nc3ccc(Cl)cc3)O2)CC1	9	-3	12
C[C@@H]1CN([C@H](C)CO)C(=O)c2cc(C#C[C@@H](C)O)cnc2O[C@@H]1CN(C)C(=O)c1ccccc1F	0	0	-0.3
COc1ccc2c3c([nH]c2c1)[C@@H](CO)N(Cc1ccc(F)cc1)CC31CCN(C(=O)NC(C)C)CC1	?	·	·
CCCC(=O)N1CCC2(CC1)CN(C(=O)Nc1ccc(F)cc1)[C@H](CO)c1c2c2ccc(OC)cc2n1C	-2	7	-9.1
CCCN1[C@@H]2c3ccc(-c4ccc(OC)cc4)c(=O)n3C[C@H]1[C@H](CO)[C@H]2C(=O)NCC	3	4	-0.7
O=C(C[C@@H]1CC[C@@H]2[C@H](COC[C@H](O)CN2C(=O)C2CCOCC2)O1)NCc1ccncc1	5	3	2.3
CCCNC(=O)N[C@@H]1CC[C@@H](CC(=O)NC2CCC2)O[C@H]1CO	1	0	1.0
CCCC#Cc1ccc([C@H]2[C@H]3CN(C(=O)Nc4cccc(F)c4)CC(=O)N3[C@H]2CO)cc1	-2	0	-1.3
C[C@H](CO)N1C[C@H](C)[C@@H](CN(C)Cc2ccc(Cl)c(Cl)c2)OCCCC[C@H](C)Oc2ccc(NC(=O)c3ccncc3)cc2C1=O	3	5	-1.2
O=C(C[C@@H]1CC[C@H]2NC[C@@H](O)COC[C@@H]2O1)NCc1ccc(Oc2ccccc2)cc1	-4	-1	-3.7
CO[C@H]1CN(C)C(=O)c2cc(NC(=O)C3CCCCC3)ccc2OC[C@@H](C)N(C(=O)c2ccccc2)C[C@@H]1C	-3	-1	-2.0
O=C(Nc1ccccc1)Nc1ccc2c(c1)[C@H]1C[C@H](CC(=O)N3CCCCC3)O[C@@H](CO)[C@H]1O2	7	1	5.8
N[C@@H]1CC[C@@H](CCn2cc(C3CCCCC3)nn2)O[C@H]1CO	2	1	0.1
O=C(C[C@@H]1C[C@H]2c3cc(NC(=O)c4ccc5c(c4)OCO5)ccc3O[C@H]2[C@H](CO)O1)NC1CCCCC1	?	·	·
CN1CCN(C(=O)[C@H]2[C@H](CO)[C@H]3Cn4c(ccc(/C=C/c5ccccc5)c4=O)[C@H]3N2CC2CC2)CC1	2	-3	4.6
CO[C@@H](CN(C)S(=O)(=O)c1ccc(C)cc1)[C@@H](C)CN([C@@H](C)CO)S(=O)(=O)c1cccc(Cl)c1	0	3	-2.8
Cc1noc(C)c1NC(=O)N(C)C[C@@H]1Oc2ccc(NC(=O)Nc3ccc(C(F)(F)F)cc3)cc2C(=O)N([C@@H](C)CO)C[C@H]1C	1	1	0.8
O=C(NC1CCCC1)N1CC2(C1)[C@H](c1ccccc1)[C@H](CO)N2CC1CC1	-3	-1	-2.3
Cc1ccc(S(=O)(=O)N[C@H]2C=C[C@@H](CC(=O)NCc3ccc(Cl)c(Cl)c3)O[C@@H]2CO)cc1	-4	1	-5.4
COc1ccccc1C(=O)Nc1ccc2c(c1)OC[C@@H](C)N(CC1CC1)C[C@@H](C)[C@H](OC)CN(C)C2=O	-8	-1	-7.8
O=C(Cc1ccccc1)N1CC[C@H]2[C@H](CO)Nc3ccc(-c4cccc(F)c4)cc3[C@H]21	?	·	·
CN1C(=O)c2cc(NC(=O)C3CCOCC3)ccc2OC[C@H]2O[C@@H](CC(=O)NCc3ccc4c(c3)OCO4)CC[C@H]21	-3	-2	-1.1
COc1ccc(S(=O)(=O)Nc2ccc3c(c2)C(=O)N([C@H](C)CO)C[C@@H](C)[C@H](CN(C)Cc2ccncc2)O3)cc1	1	-2	3.1
N#C[C@@H]1[C@@H](c2ccccc2-c2ccccc2F)[C@H](CO)N1C(=O)Cc1ccccc1	1	20	-19
COc1ccccc1S(=O)(=O)N(C)C[C@@H]1OCc2ccccc2-c2ccccc2C(=O)N([C@H](C)CO)C[C@@H]1C	0	3	-3.0
COc1cccc(NC(=O)N(C)C[C@@H]2OCc3cnnn3CCCC(=O)N([C@@H](C)CO)C[C@@H]2C)c1	6	8	-2.2
O=C(C[C@H]1C=C[C@H](NC(=O)Nc2ccc(C(F)(F)F)cc2)[C@H](CO)O1)NCc1ccccn1	2	1	1.1
CS(=O)(=O)N1CC(=O)N2[C@H](CO)[C@H](c3ccc(C#Cc4ccc(F)cc4)cc3)[C@@H]2C1	1	-4	4.4
O=S(=O)(Cc1ccccc1)N1CC2(C1)[C@@H](c1ccccc1)[C@H](CO)N2CC1CC1	5	8	-2.7
COc1ccccc1-c1ccc2n(c1=O)C[C@H]1[C@H](CO)[C@@H](C(=O)Nc3nccs3)N(C)[C@@H]21	2	13	-10
Cc1ccc(S(=O)(=O)N2CC[C@H]3[C@H](CO)Nc4ccc(-c5ccc(C#N)cc5)cc4[C@H]32)cc1	5	2	3.6
CCCNC(=O)Nc1ccc2c(c1)C(=O)N(C)C[C@H](OC)[C@@H](C)CN[C@@H](C)CO2	-1	1	-1.5

# Arranged by length of the SMILES (descending): part of the list above.
compound	DUX4 inh	DUX4 inh difference	DUX4 inh control
Cc1noc(C)c1NC(=O)N(C)C[C@@H]1Oc2ccc(NC(=O)Nc3ccc(C(F)(F)F)cc3)cc2C(=O)N([C@@H](C)CO)C[C@H]1C	1	1	0.8
CN1CCN(C(=O)[C@H]2[C@H](CO)[C@H]3Cn4c(ccc(/C=C/c5ccccc5)c4=O)[C@H]3N2CC2CC2)CC1	2	-3	4.6
O=C(C[C@@H]1C[C@H]2c3cc(NC(=O)c4ccc5c(c4)OCO5)ccc3O[C@H]2[C@H](CO)O1)NC1CCCCC1	?	·	·

# (listing goes on)
compound	DUX4 inh	DUX4 inh difference	DUX4 inh control
CCNC(=O)C[C@H]1CC[C@@H]2[C@@H](COc3ccc(NC(=O)c4ccc(C(F)(F)F)cc4)cc3C(=O)N2C)O1	2	0	2.5
C[C@H]1CN([C@@H](C)CO)C(=O)c2c(c3ccccc3n2C)-c2ccccc2CO[C@H]1CN(C)S(=O)(=O)c1ccc(C#N)cc1	?	·	·
COc1ccc2c3c(n(C)c2c1)[C@H](CO)N(C)CC31CN(C(=O)Nc2c(C)noc2C)C1	21	-1	22
CS(=O)(=O)Nc1ccc2c(c1)[C@H]1C[C@H](CC(=O)NCc3ccc(Cl)cc3)O[C@@H](CO)[C@H]1O2	7	0	7.0
C[C@H](CO)N1C[C@H](C)[C@@H](CN(C)Cc2ccc(C(F)(F)F)cc2)OCc2ccccc2-c2c(n(C)c3ccccc23)C1=O	-40*	-29*	-11*
C[C@H](CO)N1C[C@H](C)[C@@H](CN(C)Cc2ccc(C(=O)Nc3ccccc3N)cc2)Oc2ccc(NC(=O)Cn3cnnn3)cc2C1=O	-2	-7	5.5
C[C@@H]1CN([C@@H](C)CO)C(=O)CCCn2nncc2CO[C@H]1CN(C)C(=O)c1ccncc1	2	-2	4.0
CN1C(=O)c2cc(NC(=O)c3cscn3)ccc2OC[C@H]2O[C@H](CC(=O)NCc3ccc(Cl)c(Cl)c3)CC[C@@H]21	-6	-5	-1.4
O=C(CN1CCOCC1)N[C@H]1CC[C@@H](CCn2cc(C3CC3)nn2)O[C@H]1CO	2	2	-0.6
O=C(C[C@@H]1C[C@@H]2c3cc(NC(=O)C4CCOCC4)ccc3O[C@@H]2[C@H](CO)O1)NCc1ccc2c(c1)OCO2	4	6	-1.9
COc1ccc2c3c([nH]c2c1)[C@H](CO)N(C)CC31CCN(C(=O)NC(C)C)CC1	14	-4	18
O=C(C[C@H]1CC[C@@H]2[C@H](COC[C@@H](O)CN2C(=O)Nc2cccc(F)c2)O1)NCc1ccccc1Cl	?	·	·
COc1ccc2c3c(n(C)c2c1)[C@@H](CO)NCC31CN(Cc2ccc(-c3ccccn3)cc2)C1	-3	18	-21
COCC(=O)N1[C@H](CO)[C@H](c2ccc(-c3cccc(F)c3)cc2)C12CN(C(=O)C1CC1)C2	-4	-4	-0.4
C[C@@H]1CN([C@@H](C)CO)C(=O)c2cccc(NC(=O)c3ccc(-c4nccs4)cc3)c2O[C@H]1CN(C)C(=O)Nc1ccc(C(F)(F)F)cc1	3	2	1.2
O=C(CC1CC1)N1CC(=O)N2[C@H](C1)[C@H](c1ccc(-c3ccccc3)cc1)[C@@H]2CO	2	1	1.3
O=C(Nc1ccccc1F)N1CC(=O)N2[C@H](C1)[C@@H](c1ccc(-c3cccnc3)cc1)[C@@H]2CO	-2	2	-4.2
CS(=O)(=O)N1[C@H](CO)[C@@H](c2ccc(-c3ccccc3F)cc2)[C@@H]1C#N	0	3	-2.8
O=C(NC[C@H]1[C@@H](c2ccccc2)[C@H](CO)N1CC1CC1)c1cccnc1	2	2	0.1
